# Screens (PubChem BioAssay)
# Menin MLL FP FL = inhibitors of human menin-MLL interaction, wild-type MLL peptide; 290,000 tested, under 10 active; Fluorescence polarization, fluorescein-MLL peptide displacement from menin; AID 1766; FP activity change, % at 61.4 µM; inconclusive = falling polarisation curve, or a change in total fluorescence; inactive = total fluorescence flat and polarisation flat or rising; no compound was filed as active; the % refers to the polarisation; negative = inhibition;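 also: % of control where 0% means no effect; inhibitors lower the polarisation; unlabelled MLL peptide was the positive control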
# gsp antagonist = antagonizes gsp, the McCune-Albright syndrome mutation; Potency, µM (highest dose often 76.9 µM), without a hit: at the top dose activity change, negative = inhibition, hits mostly inhibitors; actives 0.4% (n = 340,000); gsp-mutant cells, cAMP HTRF, 30 min; control for the full effect not named in the record; AID 624288; active = falling curve of any shape with a large fitted effect; inconclusive = falling curve, mostly with a smaller effect; inactive = flat or rising curve; cell line not stated here;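 also: intracellular cAMP measured with PDE inhibitor Ro 20-1724 present during compound exposure; potency is read from the fitted curve at half-maximal effect; % is scaled to controls: 0 for no effect and ±100 for the full control effect; nearly all actives have a fitted effect of over 65% in size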
#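 HTRF cAMP measurement after 30 min RT detection following 30 min, 37C compound treatment alongside […] (added as 300 uM solution) in G418-selected cells seeded at 2000/well and grown 16–24 h.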
# gsp ag = activates gsp, the McCune-Albright syndrome mutation; actives 0.13% (n = 340,000); gsp mutant cells, cAMP HTRF, 30 min; control for the full effect not named in the record; Potency, µM (doses to about 76.9 µM), for the others: at the highest dose activation (cAMP increase), usual class: activators; active = well fitted activation curve with a large enough effect; inconclusive = small, poorly fitted or top-dose-only effect, or another doubt; inactive = no such curve, though single readings can be large or run the other way; cell line not stated here;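 also: phosphodiesterase inhibitor Ro 20-1724 added with compounds to block cAMP breakdown; potency is read from the fitted curve at half-maximal effect; nearly all actives have a fitted effect of over 60% in size; about a fifth of the inactives were tested at one dose only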
#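 Cells stably selected in G418 were plated at 2000/well, grown 16-24 hr, then given compounds in DMSO with the PDE inhibitor […] (300 uM solution added) for 30 min at 37C; cAMP was read by HTRF.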
# ClpP mod = qHTS Assay for Activators of ClpP; ATP-dependent Clp protease proteolytic subunit (Bacillus subtilis (strain 168)), P80244; purified B. subtilis ClpP, FRET peptide cleavage, 20 min; Potency, µM (titrated, usually from 57.5 µM), without a hit: at the top dose activity change, negative = active; actives 1.9% (n = 340,000); active = well fitted falling curve with a large enough effect; inconclusive = small, poorly fitted or top-dose-only effect; inactive = no such curve, though single readings can be large or run the other way; also: potency is read from the fitted curve at half-maximal effect; the source files actives as falling curves though it sought activators and does not explain the sign; nearly all actives have a fitted effect of over 65% in size; many hits overshoot -100%
# Target sequence (P80244 whole entry, looked up): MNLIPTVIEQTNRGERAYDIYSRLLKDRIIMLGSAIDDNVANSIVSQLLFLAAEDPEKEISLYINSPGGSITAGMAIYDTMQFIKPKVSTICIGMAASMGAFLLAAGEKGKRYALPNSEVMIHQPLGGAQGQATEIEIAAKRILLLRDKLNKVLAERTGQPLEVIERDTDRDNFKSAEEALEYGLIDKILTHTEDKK
#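 FRET quenching reversal measured ClpP activation: 10 microg/mL B. subtilis ClpP at pH 8 with the FRET-FV decapeptide, read at 430 nm after 320 nm excitation. The 20-min minus 0-min signal was scaled between DMSO/no-enzyme wells and ADEP (5.8 microM final).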
# TRPML1 inh = blocks the human TRPML1 channel | Q9GZU1 | TRPML1-inducible cells, Ca2+ dye fluorescence, FDSS; hits give low values; inhibition of EC80 agonist-evoked calcium signal | activity change, negative = inhibition, % (concentration not given with the values) | actives 0.02% (n = 390,000); in the data active means activity change below about -50%; inconclusive means about -30% to -50%; inactive means above about -30%;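 also: stimulus is agonist 54-4 at its EC80 concentration; % is scaled to controls: 0 for no effect and ±100 for the full control effect; compound concentration not given in the record; the text of the record puts the active cut at -80%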
# Target sequence (Q9GZU1 whole entry, looked up): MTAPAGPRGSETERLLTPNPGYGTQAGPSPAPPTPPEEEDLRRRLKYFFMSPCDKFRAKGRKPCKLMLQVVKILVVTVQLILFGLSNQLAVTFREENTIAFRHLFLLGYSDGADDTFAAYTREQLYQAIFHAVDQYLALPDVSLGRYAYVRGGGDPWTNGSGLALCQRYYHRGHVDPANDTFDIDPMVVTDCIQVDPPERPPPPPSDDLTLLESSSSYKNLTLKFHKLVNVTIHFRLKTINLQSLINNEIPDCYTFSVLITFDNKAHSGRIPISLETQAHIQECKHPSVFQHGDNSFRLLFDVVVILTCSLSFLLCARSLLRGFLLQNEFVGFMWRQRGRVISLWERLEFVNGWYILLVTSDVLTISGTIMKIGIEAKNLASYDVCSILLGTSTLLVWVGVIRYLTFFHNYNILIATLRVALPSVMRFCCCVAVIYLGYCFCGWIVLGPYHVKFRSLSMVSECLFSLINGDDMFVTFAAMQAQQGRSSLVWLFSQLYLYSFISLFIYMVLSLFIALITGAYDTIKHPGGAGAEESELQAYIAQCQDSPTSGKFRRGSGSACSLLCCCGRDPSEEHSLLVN
#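 TRPML1-DL cells, Tet-induced overnight (~16 h, 37 °C) at 1,500 cells/well, were loaded with Ca8 no-wash dye plus quencher for 45-90 min at room temperature. Compounds were pinned during FDSS kinetic reading; agonist 54-4 at EC80 (4 uM final) then added.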
# TRPML1 agonist = agonists of human TRPML1 channel; Q9GZU1; TRPML1-expressing cells, Ca2+ dye fluorescence, FDSS; host cell line not named in the record; reference of the full effect not given here; activation, % (concentration not given with the values); actives 0.12% (n = 410,000); AID 624414; in the data active = activation above about 50%; inconclusive = about 30% to 50%; inactive = below about 30%; also: 0% is about no effect; the text of the record puts the active cut at 80%
#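 In this qHTS format, compounds were pin-transferred onto Ca8-dye-loaded TRPML1-DL cells induced with Tet overnight, and intracellular Ca2+ fluorescence was recorded kinetically for 110 s after a 10 s baseline. A subsequent 4uM final 54-4 (EC80) addition followed by a second 110 s read served as the antagonist phase.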
# Active calls of the source: *; ? = inconclusive; · = not tested or not shown; & = joins results of further samples; [ ] = another dose, or the depositor's remark.
SMILES,Menin MLL FP FL,gsp antagonist,gsp ag,ClpP mod,TRPML1 inh,TRPML1 agonist
CCN(CC)P(=O)(Nc1ccc([N+](=O)[O-])cc1)c1c(C)nn(CCC#N)c1NC(=O)c1ccc(Cl)cc1Cl (configuration not stated),-1.3,-8.9%,-1.1%[15.4 µM],?,-10.3,-0.6
COC(=O)C1=C(c2ccc(S(C)(=O)=O)cc2)C[C@@H]2CC[C@H]1N2C(=O)NC1CC1,·,6.3%,-18.0%,0.8%,-5.6,0.1
CC12CN3CC(C)(CN(C1)P3(=O)Oc1ccccc1)C2=O (configuration not stated),1.4,-0.8%,-10.2%,-1.3%,4.1,0.1
CCc1ccc(CN2CCN(C(=O)Cc3ccccc3)CC2)cc1,3.6,5.0%,-36.5%[inhibitor],·,0.6,0.1
COc1ccc(Nc2nc3ccc(C)cc3cc2C#N)c(OC)c1,0.7,-1.3%,?,1.4%,-2.7,-0.4
C[N+]12CCC(CC1)C(C#N)(N1CCOCC1)C2 (configuration not stated),1.0,10.3%,-56.2%[inhibitor],-2.8%,4.6,1.2
O=C1NC(=O)N(c2ccc3c(c2)OCO3)C(=O)/C1=C/c1ccc(N2CCCC2)o1,?,-7.9%,-27.2%,0.6%,4.8,4.9
COc1ccccc1N1CCN(Cc2c(F)cccc2Cl)CC1,-6.6,-8.5%,-4.6%,-1.2%,-8.1,0.6
CCNc1ccc(P(=S)(N(C)C)N(C)C)cc1,7.0,-3.4%,-19.5%,-1.6%,-2.8,-0.9
CN1CCN(CCC(=O)OC2CC3CCC(C2)N3C)CC1 (configuration not stated),-0.1,2.8%[15.4 µM],-2.6%,2.5%,-19.4,0.4
O=C(COC(=O)CCc1c[nH]c2ccccc12)Nc1ccc([N+](=O)[O-])cc1,-3.6,?,-33.7%,-0.7%,5.8,-0.2
C=CCn1c(O)c(C(C)=Nc2ccc(C(=O)OCC)cc2)c(=O)[nH]c1=O,12.1,5.7%,-26.9%,0.5%,1.3,0.0
CC(CCc1ccccc1)NC(C)C(O)c1ccc(O)cc1 (configuration not stated),-3.1&5.7&0.3&-0.3,16.6%,·,0.4%,-9.2,0.6
OC(CN1CC=C(c2ccccc2)CC1)c1ccccc1 (configuration not stated),7.6,10.5%,-15.0%[15.4 µM],·,9.3,0.1
CN(C)C(=O)Oc1ccc(Cl)c2ccccc12,5.3,10.7%,-26.4%,0.2%,12.5,1.4
O=c1[nH]c(=O)n(Cc2ccc(F)cc2)c(O)c1C=NCc1cccnc1,-0.9,7.1%,?,-0.3%,-10.9,0.7
COCCOC(=O)c1c(C)n(C)c2ccc(OC(=O)N(C)C)cc12,0.4,1.9%,2.5%,1.0%,-9.3,-0.1
O=C1NC(=S)N(c2ccccc2)C(=O)/C1=C/c1ccco1,?,-3.8%,-1.9%,·,-21.7,-0.5
COc1ccc(OC(=O)N(C)C[C@@H]2OCc3cnnn3CCCC(=O)N([C@@H](C)CO)C[C@H]2C)cc1,·,·,-16.0%,-0.1%,4.4,0.3
Cc1cccc(-n2c(/C=C/c3ccc([N+](=O)[O-])o3)nc3ccccc3c2=O)c1,?,3.2%,?,-2.5%,10.5,-0.1
Cc1cc(C)n(CCOC(=O)C2C(C=C(Cl)Cl)C2(C)C)n1 (configuration not stated),1.3,-7.1%[15.4 µM],3.3%,-9.4%,-25.1,-0.2
Cc1ccc(CS(=O)(=O)CCC(=O)N2CCC3(CC2)OCCO3)cc1,4.1,11.4%,-1.3%,0.8%,-5.1,0.0
CC(CCC(=O)O)C1CCC2C3CCC4C[C@H](O)CCC4(C)C3CC(=O)C12C (some centres not stated),-2.3,?,-12.9%[15.4 µM],-3.1%,-1.8,-0.3
Cc1ccc(CC2C(=O)N(C)C(=O)N(C)C2=O)s1,-0.1,-4.5%,-0.7%,-0.4%,-1.3,0.0
CSCc1nnc2n1-c1ccc(Cl)cc1C(c1ccccc1)=NC2,3.2,6.3%,-37.4%[inhibitor],-3.6%,15.9,0.5
# Further compounds:
SMILES,Menin MLL FP FL,gsp antagonist,gsp ag,ClpP mod,TRPML1 inh,TRPML1 agonist
CCC(C)n1c(O)c(C=NC(C)c2ccccc2)c(=O)[nH]c1=S (configuration not stated),5.7,2.6%,-2.3%[15.4 µM],·,35.1,3.6
COc1cccc(N2C(=O)NC(=O)/C(=C\c3ccc([N+](=O)[O-])s3)C2=O)c1,?,-5.2%,-1.1%[15.4 µM],·,-27.7,-0.7
CC/C(=N\N1CCCCCC1)c1c(O)n(-c2ccc(C)cc2)c(=O)[nH]c1=O,5.9,-4.1%,?,-0.7%,17.9,0.3
CCCCCCC(C)(C)c1ccc([C@@H]2C[C@H](O)CC[C@H]2CCCO)c(O)c1,5.5,?,·,0.3%&-0.4%,-1.5,0.8&0.4
CC1CN1c1cc2c(c3c1ccn3C)C1CCC2C1 (configuration not stated),·,·,·,1.3%,2.0,0.1
Cc1ccc(S(=O)(=O)NC(Cc2cnc[nH]2)C(=O)O)cc1 (configuration not stated),1.7,6.5%,4.6%,4.6%,-1.5,-0.3
Cc1cc(C(=O)N2CCC3(CC2)OCCO3)cs1,0.2,12.9%,5.1%,-1.6%,13.7,1.0
CCOc1ccc(C2C(C#N)=C(N)Oc3c2c(=O)oc2ccccc32)cc1 (configuration not stated),0.5,-13.7%,-31.0%[inhibitor],37.9%,-8.9,0.1
N#CC1=C(N)Oc2cc(O)ccc2C1c1ccc2c(c1)OCO2 (configuration not stated),18.2,-6.6%,?,·,-5.8,-0.6
O=C(c1ccccc1F)c1cn(CC(=O)N2CCCC2)c2ccccc12,-0.3,-19.2%,-32.5%[inhibitor],-0.2%,6.6,-1.1
CCC1(NS(=O)(=O)c2ccc(N)cc2)C(=O)N(C)C(=O)N(C)C1=O,·,3.6%,6.6%,-2.7%,-6.1,0.4
Cc1c(Cl)cccc1NC(=O)CN1C(=O)C(C)N=C(c2ccccc2)c2ccccc21 (configuration not stated),·,·,·,-0.4%,25.5,1.6
C=CCN1C(=O)NC(=O)/C(=C\c2ccc(-c3ccccc3[N+](=O)[O-])o2)C1=O,-0.9,-7.9%,0.3%[15.4 µM],·,2.0,1.9
Cc1cc(OCC(=O)N2CCC(C(=O)O)(c3ccccc3)CC2)c2c(C)c(C)c(=O)oc2c1,-1.2,0.8%,·,4.1%,·,·
COc1cc2c(cc1O)CC1c3c(cc(O)c(OC)c3-2)CCN1C (configuration not stated),-5.5&-1.3&1.8&-2.2,4.3%,0.0%,4.5%,-3.7,0.2
Nc1c(C(=O)Nc2ccc(Cl)c(C(F)(F)F)c2)sc2nc3c(cc12)N1CCC3CC1,·,·,·,4.0%,-8.7,-1.0
CC(C)C(=O)Nc1ccc(N2CCN(C)CC2)c(F)c1,0.4,7.1%,0.6%[15.4 µM],·,-4.5,2.7
CCCCn1c(O)c(C=Nc2c(C)n(C)n(-c3ccccc3)c2=O)c(=O)[nH]c1=O,0.3,3.9%,-1.6%,-0.1%,6.4,0.3
CC12CCC(=O)C=C1CCC1C2CCC2(C)C1CCC2(O)CC#N (configuration not stated),·,-1.8%,-9.9%,·,5.2,0.1
O=C(Nc1ccc(Cl)cc1)O/N=C(\c1ccccc1)c1ccccn1,-1.1,10.6%,-4.0%,-1.0%,7.9,0.0
Cc1ccccc1NC(=O)NCCN1CC1,2.5,5.1%,-5.7%,-1.2%,29.4,-0.5
O=P(NC1CCCCC1)(Oc1ccccc1)Oc1ccccc1,·,-11.6%,-16.0%,·,-4.2,2.6
O=C(c1ccccc1)C1CCCN(Cc2nc(-c3cnccn3)no2)C1 (configuration not stated),3.3,5.2%,-3.9%[15.4 µM],·,4.6,-0.4
COc1ccc(N2CCN(Cc3nc4ccccc4[nH]3)CC2)cc1,0.1,-29.3%,-26.7%,·,-1.1,-0.1
O=c1[nH]c(=O)n(C2CCCCC2)c(O)c1C=Nc1ccc(N2CCOCC2)cc1,7.3,11.0%,2.3%[15.4 µM],3.1%,-15.7,-0.6
# Additional entries.
SMILES,Menin MLL FP FL,gsp antagonist,gsp ag,ClpP mod,TRPML1 inh,TRPML1 agonist
CCc1ccc(NC(=O)CN2CC(c3ccccc3)CC2=O)cc1 (configuration not stated),1.4,1.3%,-19.5%,-0.5%,-9.2,-0.7
COC(=O)C1=C(c2ccc(Cl)c(C(F)(F)F)c2)C[C@@H]2CC[C@H]1N2C(=O)NC1CCCCC1,·,-14.5%,?,0.8%,26.0,0.7
COC(=O)C1=C(c2cc3ccccc3o2)C[C@@H]2CC[C@H]1N2C,·,5.1%,?,1.0%,44.9,0.2
COC(=O)C1=C(c2ccc(-c3ccccc3)c(F)c2)C[C@@H]2CC[C@H]1N2C(=O)NCCOc1ccccc1,·,-5.0%,5.7%,-13.1%,30.2,1.4
CCc1ccc(-n2c(O)c(C(C)=O)c(=O)[nH]c2=O)cc1 (tested in a mixture with another compound),?,5.1%,3.0%[15.4 µM],-3.0%,3.5,0.6
Cn1c(O)c(C=NCCN2CCOCC2)c(=O)n(C)c1=S,0.9,3.8%,8.1%[15.4 µM],-1.5%,-11.7,-0.2
Cc1ncoc1C(=O)NCC1=C(c2ccc(S(C)(=O)=O)cc2)C[C@@H]2CC[C@H]1N2CCOc1ccccc1,·,·,-39.3%[inhibitor],-2.5%,7.0,0.0
O=c1[nH]c(=O)n(C2CCCCCC2)c(O)c1C=NCc1cccnc1,2.4,-7.1%,14.5%[15.4 µM],1.0%,-9.4,-0.5
Cn1c(O)c(C=Nc2ccccc2)c(=O)n(C)c1=O,-2.1,-1.1%,-11.1%[15.4 µM],-1.3%,-15.2,-0.4
CCN(CC)c1ccc(CNCCc2ccccc2F)cc1,-3.1,10.9%,15.1%[15.4 µM],·,5.7,0.5
CC(N)Cc1c[nH]c2ccc(OCc3cccs3)cc12 (configuration not stated),1.2,5.0%,·,-0.3%,-0.9,1.7
O=c1c(C=NCc2cccs2)c(O)n(C2CCCCC2)c(=O)n1C1CCCCC1,5.8,-8.2%,2.3%,-2.6%,20.7,2.2
Clc1ccc(COC(Cn2ccnc2)c2ccc(Cl)cc2Cl)c(Cl)c1 (configuration not stated),-2.7,-16.8%&-5.0%,·,-0.7%&-10.4%,26.2&42.6,0.0&1.3
CCN1CCC2(CC1)NC(CO)(CO)CO2,0.8,-1.7%,-64.2%[inhibitor],0.5%,-12.5,-1.9
O=C1c2ccccc2C(=O)N1Cc1nc2ccccc2c(=O)n1-c1ccccn1,-0.9,0.3%,-30.5%[inhibitor],0.8%,3.6,0.1
CCC1C2Cn3c(nc4ccccc43)C1N(C)O2 (configuration not stated),-1.9,5.0%,·,-1.0%,-3.6,-0.4
CCOC(=O)C1=C(C)OC(N)=C(C(=O)OC)C12C(=O)Nc1ccc(Br)cc12 (configuration not stated),-1.5,3.0%,-34.3%[inhibitor],-4.1%,0.7,0.7

# These rows are one share of the data, so the mix of outcomes need not match the whole.
